# Mtb hypoxia rep: reduces hypoxia-regulated biosensor signal in M. tuberculosis; M. tuberculosis hypoxia-regulated fluorescent reporter, fluorescence; 300,000 compounds, 0.1% hits; fluorescence inhibition, % (test concentration not listed);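 active means 35 to 45% if threefold the growth effect, above 45% if 1.5-fold the growth effect; inactive means the rest, general growth blockers included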;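 further: wells of about 50 µL received 100 nL stock; 0% = vehicle wells and 100% = reference inhibitor wells; whole bacteria with a GFP reporter of the hypoxia response; strong numbers were not always called active; many hits fall short of the cut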
# BJeLR viability: BJeLR cell viability loss; inhibition, % (concentration not given with the values); BJeLR (HRASV12) viability, CellTiter-Glo ATP luminescence, 48 h; reference of the scale not given here; 300,000 compounds, 0.17% hits;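 active means replicate mean above 50%; inconclusive means above 50% but judged a plate artefact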;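 further: 50 nL library stock added to about 25 µL; numbers are from one replicate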
# ugtP null kill: compounds lethal to S. aureus RN4220 ugtP deletion mutant. OD600 growth, 16 h; some inactives read as strong as hits. growth inhibition, % (concentration not given with the values). 330,000 compounds, 0.54% hits;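 active means z-score under -3 and OD600 up to 0.15 on both plates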;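 further: plate controls were untreated wells for no effect and antibiotic for full effect; wells of about 80 µL received 100 nL stock; the first replicate is given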
# PrP UTR inh: suppresses PrP 5' UTR mRNA reporter expression; cell-based PrP 5' UTR mRNA reporter, plate reader; inhibition, % (test concentration not listed); 340,000 compounds, 0.35% hits; AID 488862;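 active means every replicate at 50% or more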;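 further: 0 = median of the neutral control wells; tested in H4 reporter cells; numbers are from one replicate; inactives centre near -14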
# RN4220 kill: kills Staphylococcus aureus RN4220; inhibition, % (test concentration not listed); 330,000 compounds, 0.33% hits; S. aureus RN4220 growth, OD600, 16 h; AID 1259311;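 active means z-score of -3 or lower and OD600 up to 0.18 on both plates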;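 further: plate controls were untreated cells for no effect and reference antibiotic for full effect; stock transfer was 100 nL into about 80 µL; one replicate is shown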
# Bead autofluor: counter-screen for toxin protease inhibitors: compound fluorescence; compound autofluorescence counterscreen, microsphere flow cytometry; hits give high values; fluorescence intensity (test concentration not listed); 360,000 compounds, 3.1% hits;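 active means at least 3 SD above the mean of all compounds, about 16000 in these data; inconclusive means too few beads counted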;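 further: 100 nL of 1 mM stock went into each well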
# Mtb hypoxia rep growth: further read-out of Mtb hypoxia rep, marked with its call; growth inhibition, %; measured here: M. tuberculosis growth (absorbance);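 0% = vehicle and 100% = reference antibiotic; read after six days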
# The depositor's hits bear a star; ? = inconclusive; nt = no result given. Compounds were not picked by outcome; about 4% have a hit in one of these screens.
# Second line of a record – Mtb hypoxia rep growth	BJeLR viability	Bead autofluor	ugtP null kill	PrP UTR inh	RN4220 kill	Mtb hypoxia rep
> COc1ccccc1-n1c(COc2ccccc2-c2ccccc2)nnc1SCC(=O)c1c(N)n(C)c(=O)n(C)c1=O
    6	-4	1963	5	7	3.3	-4
> CCN1CCN(C2CCCCC2NS(=O)(=O)c2ccccc2)CC1 (stereo not drawn)
    7	4	5075	1	-26	1.0	3
> CCc1[nH]nc2c1C(C(C)C)C(C#N)=C(N)O2 (stereo not drawn)
    11	2	8669	8	-13	1.5	2
> O=C(Nc1ccc(Cl)cc1)NC1CCCC1Cc1ccco1 (stereo not drawn)
    3	-3	4198	-11	-12	-2.6	-2
> CN(C)Cc1c(O)ccc2c(=O)c(-c3ccc(Cl)cc3)coc12
    1	8	3676	6	-26	0.4	-3
> CN(C(=O)C1CCCO1)c1nnc(-c2cnccn2)s1 (stereo not drawn)
    13	2	2743	2	-21	-0.1	18
> O=C(Cn1c(=O)oc2ccccc21)Nc1nnc(N2CCCCCC2)s1
    6	1	5542	7	-21	-2.4	4
> CCOC(=O)Nc1ccc(S(=O)(=O)Nc2nc(C)cc(C)n2)cc1
    9	2	24252*	-3	1	-2.4	-2
> CC(=O)CC1c2cc(C(F)(F)F)ccc2S(=O)(=O)N1Cc1ccccc1 (stereo not drawn)
    4	nt	nt	1	nt	5.7	8
> Cc1ccccc1CN(c1ccc(C(=O)N2CCc3ccccc3C2)cc1)S(C)(=O)=O
    6	6	9103	-7	-7	23	0
> O=C(CCl)Nc1ccc(S(=O)(=O)Nc2nccs2)cc1
    nt	-11	3670	11	-30	4.5	nt
> O=C(NCCc1ccc(Cl)cc1)c1cc(S(=O)(=O)N2CCCCC2)c[nH]1
    4	-2	5500	-8	-35	1.4	-6
> C=CCn1c(N(C)C)nc2c1c(=O)[nH]c(=O)n2C
    7	-1	5072	-5	-33	5.1	-1
> COC(=O)CCc1c(C)nn(-c2ccccc2)c1C
    nt	10	2867	1	-3	1.4	nt
> O=C(CSc1nnc(-c2ccncc2)o1)Nc1cc(Cl)ccc1C(=O)O
    3	nt	3281	-1	-4	0.1	2
> CC(C)CC(NC(=O)OC(C)(C)C)C(=O)N1CCC(C(=O)O)CC1 (stereo not drawn)
    -5	nt	nt	-6	nt	3.4	8
> c1cc2c3c(cccc3c1)NC1(CCCCC1)N2
    6	-2	6825	3	-20	6.5	10
> CCN1C(=O)[C@H]2[C@@H](c3ccc(-c4cccc(Cl)c4)c(OC)c3)N[C@@](C)(C(=O)OC)[C@H]2C1=O
    nt	-10	2908	nt	-17	nt	nt
> CCN(CC(=O)Nc1c(F)cccc1F)C(=O)c1ccc(Sc2nncn2C)c([N+](=O)[O-])c1
    2	2	5010	12	-39	3.6	1
> Cc1[nH]n(C)c(=O)c1[N+](=O)[O-]
    3	-9	4084	-1	-2	0.3	0
> CCN(CC)S(=O)(=O)c1ccc(N2CCOCC2)c(NC(=O)c2ccc(N3CCCC3=O)cc2)c1
    nt	-14	4997	nt	-11	nt	nt
> O=C(NCCSc1c[nH]c2ccccc12)c1c(F)cccc1F
    9	-1	5517	-2	-24	5.3	5
> CC1(C)C/C(=C(/C#N)C(N)=O)CCO1
    7	7	3195	-1	2	-6.9	6
> O=c1c2[nH]c3ccc(F)cc3c2ncn1C1CCCCC1
    -20	-4	3207	1	-55	12	-3
> Cc1ccc(-c2nn(-c3ccc(F)cc3)cc2C(=O)NCCCN2CCCC2=O)cc1
    -9	nt	6230	2	-8	-1.7	5
> COC(=O)C1=C(c2ccc(S(C)(=O)=O)cc2)CC2CCC1N2C(=O)N1CCCC1 (stereo not drawn)
    5	nt	nt	2	nt	7.4	9
> COCCCNC(=O)c1cc(=O)n(Cc2ccc(Cl)cc2)c2ccccc12
    5	-13	3826	2	-38	4.5	-5
> NC(=O)c1ccc(C(F)(F)F)n(Cc2cccc(Cl)c2)c1=O
    3	11	11931	-22	-11	0.3	1
> Cc1ccc(NC(=O)Cn2nc(C)c3ccccc3c2=O)c(C)c1
    2	3	14791	3	-2	1.3	8
> COc1cccc(/C=N/n2c(SC)nnc2-c2ccccc2)c1OC
    nt	2	3335	nt	-4	nt	nt
> O=C(Nc1ccc(Cl)c(S(=O)(=O)Nc2ccccc2Cl)c1)c1cccs1
    7	-1	2563	6	-4	16	6
> CCOC(=O)c1nnn(-c2nonc2N)c1-c1ccc(Cl)cc1
    nt	2	4251	nt	-8	nt	nt
> CCN1CCN(c2c(Cl)cccc2NC(=O)c2ccco2)CC1
    nt	2	3740	6	-4	-2.0	nt
> CCn1c(=S)sc2c(=O)n(CC(=O)Nc3ccc(OC)c(Cl)c3)c(C)nc21
    4	-4	4618	6	12	2.5	2
> CCOc1ccc(C(=O)OC(C)CN2CCCCC2)cc1 (stereo not drawn)
    15	-3	3585	9	-24	4.2	2
> Cc1cc(-c2nnc(SCC(=O)Nc3ccc(C(F)(F)F)cc3)n2C)no1
    6	-2	5694	2	-22	4.0	9
> COc1ccc(NC(=O)Cc2nnc(SCC(=O)Nc3cc(C)ccc3OC)n2C)cc1
    nt	4	4713	7	-13	3.1	nt
> CCOC(=O)c1c2ccc(OCC(=O)N/N=C/c3ccc(C)cc3)cc2n2ccccc12
    nt	2	3378	nt	-16	nt	nt
> CCOC(=O)c1csc(NC(=O)c2ccc(S(=O)(=O)N(CC)CC)cc2)n1
    -4	10	3730	-5	-41	-4.3	3
> Cc1cc(NC(=O)CSc2nnc(COc3cccc(C)c3C)n2C)no1
    0	4	7864	14	-13	6.7	-1
> COc1ccc(C2CC(c3ccccc3O)=NN2C(=O)c2ccccc2)cc1OC (stereo not drawn)
    11	-4	2958	5	4	1.8	-13
> Cc1cccc[n+]1CC(=O)Nc1ccc([N+](=O)[O-])cc1
    -5	-2	4170	11	-18	-1.7	4
> Cc1cc(OCC(=O)Nc2ccc(S(=O)(=O)N3CCN(C)CC3)cc2)cc(C)c1Cl
    1	-1	2467	-3	-11	-8.1	5
> O=C(N/N=C/c1ccccc1)c1cc(=O)[nH]c2ccccc12
    nt	-9	1970	nt	4	nt	nt
> CCN1C(=O)[C@H]2[C@H]3CN=C(SCC4CC4)N3[C@@](CC)(C(=O)OC)[C@H]2C1=O
    -4	nt	2836	-2	-11	1.7	-5
> COc1ccc2cc(C(c3nnnn3Cc3ccc(F)cc3)N3CCCCCC3)c(=O)[nH]c2c1 (stereo not drawn)
    19	2	12405	-8	-10	3.3	2
> Cc1cc(NC(=O)CSCC(=O)N(C)Cc2ccc(Cl)cc2Cl)no1
    22	-9	?	1	-9	5.1	3
> O=C(COc1ccc(Cl)cc1)Nc1ccc(C(=O)O)cc1NC(=O)COc1ccc(Cl)cc1
    -1	-13	6076	1	-17	2.5	6
> CN1CCN(C(=O)C23CCC(C)(C(=O)C2Br)C3(C)C)CC1 (stereo not drawn)
    6	-1	5944	9	-11	5.3	11
> CCOc1ccc(N(C)Cc2cc(=O)oc3ccc(OC)cc23)cc1
    5	6	3386	26	-28	-2.4	-1
> C/C(=N\NC(=O)Cc1ccccc1)c1cccs1
    nt	11	7613	nt	-20	nt	nt
> O=C(/C=C/c1ccccc1)N/C(=C/c1ccccc1)C(=O)NCCCO
    2	-11	2459	5	-131	4.6	9
> CCOCCCNC(=O)CCc1nnc2ccc(N3CCCCC3)nn12
    17	4	3675	1	-9	2.7	11
> Cc1cccc(C)c1NC(=S)N(CCCN1CCN(C)CC1)Cc1cccs1
    2	-1	4156	8	-8	4.1	13
> C1CCN(CCCNC2C3CC4CC(C3)CC2C4)C1 (stereo not drawn)
    6	4	2370	6	-15	3.1	15
> Cc1cccc(NC(=S)N2CCCC2)c1
    -13	2	4576	-1	-78	-3.3	-5
> CN(C)CCSC1c2ccccc2CSc2ccccc21 (stereo not drawn)
    0	-4	4098	0	nt	-3.8	1
> N/C(=N\c1nc2c(c(=O)[nH]1)CCC2)Nc1ccccc1C(F)(F)F
    -9	13	6648	14	-25	6.7	11
> Nc1nc(SCC(=O)NC2CCCCC2)[nH]c(=O)c1-c1ccccc1
    17	3	4318	-1	-15	-1.6	2
> CCOC(=O)N1CCN(CCC(=O)Nc2cc(C)ccc2C)CC1
    1	-14	3437	4	-14	2.4	2

# Following part
# Second line of a record – Mtb hypoxia rep growth	BJeLR viability	Bead autofluor	ugtP null kill	PrP UTR inh	RN4220 kill	Mtb hypoxia rep
> CCOC(=O)C1CCN(C(=O)Cn2c(=O)oc3cc(S(=O)(=O)N4CCCC4)ccc32)CC1
    4	-3	5671	10	-10	1.3	14
> COc1ccc(NC(=O)Cn2c(=O)n(CCC(=O)NCC3CCCO3)c(=O)c3cc(OC)c(OC)cc32)cc1 (stereo not drawn)
    -14	-10	4144	14	-3	2.0	0
> COc1ccc(Nc2oc(-c3cccs3)nc2C#N)cc1
    nt	11	2747	-9	-58	0.5	nt
> Cc1sc(N/N=C/c2cc([N+](=O)[O-])ccc2O)nc1-c1ccccc1
    nt	-4	2284	nt	-1	nt	nt
> O=C(OCc1ccccc1)c1ccccc1
    nt	1	5354	-18	-25	1.7	nt
> O=C(NC(Cc1ccccc1)C(=O)O)c1ccco1 (stereo not drawn)
    -4	1	4657	1	-1	2.7	3
> CCC(C(=O)NCCCN1CCN(C)CC1)n1nc(C)c2sc3ccccc3c2c1=O (stereo not drawn)
    1	0	5874	5	-2	1.4	-3
> Cc1cc(N2CCN(S(=O)(=O)c3ccccc3)CC2)nc2c(C)cccc12
    0	2	4571	16	9	-5.9	6
> CCOC(=O)CN(C(=O)COc1nc(-c2ccccc2)cc(C)c1C#N)c1ccccc1
    -5	-1	6132	1	-14	2.1	7
> Cc1ccc(-c2nnn(CC(=O)N(c3cccc(F)c3)C(C(=O)NC3CCCC3)c3ccco3)n2)o1 (stereo not drawn)
    9	2	9978	1	-8	5.1	9
> Cc1cc(C)cc(C(=O)NC(CC(N)=O)c2ccc(NCC3CC3)c([N+](=O)[O-])c2)c1 (stereo not drawn)
    8	3	4044	-11	-1	1.6	13
> CCC1CCCCN1c1nc(-c2cccc(OC)c2O)nc2ccccc12 (stereo not drawn)
    7	1	16896*	-27	-7	-7.2	4
> CCOc1ccc(CCNC(=O)C2CCCN(c3nn4c(=O)cc(C)nc4s3)C2)cc1OCC (stereo not drawn)
    8	9	2924	-5	-18	-8.1	10

# Assay outcomes: PubChem, several laboratories
